High-throughput results: PubChem BioAssay, National Center for Advancing Translational Sciences (NCATS)
Vaccinia Venus: qHTS for Stage-Specific Inhibitors of Vaccinia Orthopoxvirus: Venus Reporter Primary qHTS; 330,000 tested, 0.46% active; Vaccinia virus Venus reporter expression, fluorescence; AID 720580, 2013; Potency, µM (series often up to 36.5 µM), without a hit: at the top dose activity change, negative = inhibition, hits mostly inhibitors; active means well fitted inhibition curve with a large enough effect; inconclusive means small, poorly fitted or top-dose-only effect; inactive means no such curve, though single readings can be large or run the other way; tested in A549 cells; note: nearly all actives have a fitted effect of over 30% in size; inactives centre near -10
Vaccinia mCherry: qHTS for Stage-Specific Inhibitors of Vaccinia Orthopoxvirus: mCherry Reporter Primary qHTS; Vaccinia virus mCherry reporter infection, fluorescence; about a quarter of the inactives have no number; Potency, µM (doses to about 36.5 µM), without a hit: top-dose activity change, negative = inhibition, hits mostly inhibitors; 310,000 tested, 0.63% active; AID 720579, 2013; active = well fitted inhibition curve with a large enough effect; inconclusive = small, poorly fitted or top-dose-only effect; inactive = no such curve, though single readings can be large or run the other way; tested in A549 cells; note: nearly all actives have a fitted effect of over 35% in size; inactives centre near -10
The depositor's hits bear a star; i = inactive; ? = inconclusive; . = not tested or not shown; [ ] = remark or other dose. % is set by controls: 0 for no effect and ±100 for the full control effect; potency is the fitted concentration of half-maximal effect.

Every second line gives: Vaccinia Venus, Vaccinia mCherry
Cc1[nH]c2ccccc2c1C(c1ccccn1)N1CCC(C)CC1 (stereo not given)
  -15%, .
Cc1ccc(C)c(C(=O)CN2C(=O)C(=O)N(C3CCCC3)C2=O)c1
  -4%, i
Cc1cc(C)cc(NS(=O)(=O)c2ccc3[nH]cc(C(=O)N4CCCC4)c(=O)c3c2)c1
  7%, 7%
O=C(NCC(c1cccnc1)N1CCc2ccccc2C1)C(=O)Nc1cccc(Cl)c1 (stereo not given)
  -17%, -18%
CCOC(=O)c1c(NC(=O)Cc2ccccc2)sc2c1CCN(C)C2
  -11%, -11%
COC(=O)c1cccc(NC(=O)CN(c2ccc3c(c2)OCO3)S(C)(=O)=O)c1C
  -8%, -14%
COc1ccc(-n2nnnc2SCC(=O)NCCc2ccc(OC)c(OC)c2)cc1
  -16%, i
CCSc1nc(-c2ccc(OC)cc2)nc2c1Cc1c(CO)cnc(C)c1O2
  -18%, -24%
CCC(c1nnnn1Cc1ccc(OC)cc1)N1CCN(c2ccc(OC)cc2)CC1 (stereo not given)
  -21%, -15%
NC(=O)c1sc2nc3c(c(-c4cccnc4)c2c1N)CCC3
  -4%, i

Every second line gives: Vaccinia Venus, Vaccinia mCherry
COc1ccc(N2CCN(C(=O)CCNC(=O)c3ccc(Br)cc3)CC2)cc1
  -16%, -12%
Cc1nn2c(N)c(C#N)cnc2c1-c1ccccc1
  ?, .
CC(C)C(OC(=O)c1nsc(Cl)c1Cl)C(=O)NCC1CCCO1 (stereo not given)
  -3%, -6%
O=[N+]([O-])c1ccc(N2CCN(S(=O)(=O)Cc3ccccc3)CC2)cc1N1CCOCC1
  -29%, -14%
CCN(CC)CCN(Cc1cc2cc3c(cc2[nH]c1=O)OCCO3)C(=S)NCC(C)C
  ?, -15%
CCN(CC(=O)Nc1c(F)cccc1F)C(=O)C(C)SCc1nc2sc(C)c(C)c2c(=O)[nH]1 (stereo not given)
  -13%, 0%
CCOCCCNC(=O)CN1C(=O)/C(=C\c2ccc(C)cc2)Sc2ccccc21
  -7%, i
CCOC(=O)c1cnc2ccc(C(=O)OC)cc2c1Nc1ccccc1CC
  -1%, 2%
Cc1ccccc1NC(=O)CSc1nc(N)c(C#N)c(-c2cccs2)c1C#N
  -24%, .
COc1ccc(N2CCN(C(=O)COC(=O)[C@@H](NC(=O)c3ccccc3Cl)C(C)C)CC2)cc1
  -18%, -18%

Every second line gives: Vaccinia Venus, Vaccinia mCherry
COc1cn(CC(=O)Nc2ccc(C)cc2C)c(CN2CCCCC2)cc1=O
  -17%, -18%
C=CCOc1ccccc1CNCCCN1CCOCC1
  -5%, -5%
Cc1ccc(-c2nc(CS(=O)CC(=O)NCc3ccccn3)c(C)o2)cc1 (stereo not given)
  -15%, -18%
CN(C)C/C=C/C(=O)Nc1cccc(-c2c[nH]c3ncnc(Oc4ccc(NC(=O)CC(=O)Nc5ccc(F)cc5)cc4F)c23)c1
  -22%, i
COc1ccc(CC(=O)NNC(=O)c2cccs2)cc1
  -11%, i
CCCOC(=O)c1ccc(Nc2cc(C)nc3ncnn23)cc1
  -3%, .
COC(=O)c1ccc(CSc2nc3cc(Cl)ccc3s2)o1
  2%, -11%
S=c1[nH]nc(-c2cccc3ccccc23)n1-c1cccnc1
  -4%[7.34 µM], -8%[7.34 µM]
CC(C)[C@H](NC(=O)NCCc1ccccc1)C(=O)O
  -4%, .
COc1ccc(NC(=O)Cc2nc3ccccc3[nH]2)cc1
  ?, .

Copied from the results shown, 13 compounds:
Every second line gives: Vaccinia Venus, Vaccinia mCherry
CCN(CC(=O)Nc1c(F)cccc1F)C(=O)C(C)SCc1nc2sc(C)c(C)c2c(=O)[nH]1 (stereo not given)
  -13%, 0%
CCOCCCNC(=O)CN1C(=O)/C(=C\c2ccc(C)cc2)Sc2ccccc21
  -7%, i
CCOC(=O)c1cnc2ccc(C(=O)OC)cc2c1Nc1ccccc1CC
  -1%, 2%
Cc1ccccc1NC(=O)CSc1nc(N)c(C#N)c(-c2cccs2)c1C#N
  -24%, .
COc1ccc(N2CCN(C(=O)COC(=O)[C@@H](NC(=O)c3ccccc3Cl)C(C)C)CC2)cc1
  -18%, -18%
COc1cn(CC(=O)Nc2ccc(C)cc2C)c(CN2CCCCC2)cc1=O
  -17%, -18%
C=CCOc1ccccc1CNCCCN1CCOCC1
  -5%, -5%
Cc1ccc(-c2nc(CS(=O)CC(=O)NCc3ccccn3)c(C)o2)cc1 (stereo not given)
  -15%, -18%
CN(C)C/C=C/C(=O)Nc1cccc(-c2c[nH]c3ncnc(Oc4ccc(NC(=O)CC(=O)Nc5ccc(F)cc5)cc4F)c23)c1
  -22%, i
COc1ccc(CC(=O)NNC(=O)c2cccs2)cc1
  -11%, i
CCCOC(=O)c1ccc(Nc2cc(C)nc3ncnn23)cc1
  -3%, .
COC(=O)c1ccc(CSc2nc3cc(Cl)ccc3s2)o1
  2%, -11%
S=c1[nH]nc(-c2cccc3ccccc23)n1-c1cccnc1
  -4%[7.34 µM], -8%[7.34 µM]

The list continues:
Every second line gives: Vaccinia Venus, Vaccinia mCherry
Cn1c(N=Cc2ccc([N+](=O)[O-])cc2)c(N)c(=O)n(C)c1=O
  -18%, i
CCOc1ccc(S(=O)(=O)N2CCC(n3c(C)nc4cccnc43)CC2)cc1
  -8%, -15%
Cc1ccc(-n2c(C)nnc2SCC(=O)NC2CC2)cc1
  -6%, -16%
Cc1cc(NC(=O)c2cccc(S(=O)(=O)N3CCCCCC3)c2)n(-c2ccccn2)n1
  -22%, .
COc1cc(S(=O)(=O)NCCCN2CCOCC2)ccc1Cl
  -4%, i
COc1cc2nc(NCc3ccccc3Cl)n3nc(-c4cccnc4)nc3c2cc1OC
  -11%, -4%
CCOc1ccc(CCNC(=O)c2ccc3[nH]c(C)c(C)c3c2)cc1
  -5%, -19%
O=C(NCCCN1CCOCC1)c1cnn(-c2ncc3c(n2)-c2ccccc2CC3)c1C1CC1
  -11%, -29%
Cc1nc(N2CCCCC2)[nH]c(=O)c1CN(C)N=O
  -13%, -9%
Cc1noc(C)c1S(=O)(=O)N(C)C[C@H]1Oc2ccc(NC(=O)C3CC3)cc2C(=O)N([C@H](C)CO)C[C@@H]1C
  -1%, -20%

Every second line gives: Vaccinia Venus, Vaccinia mCherry
CCCCC1OC23CCCCC2C(C#N)(C#N)C1(C#N)C(=N)O3 (stereo not given)
  1%, -1%
COC(=O)C1=C[C@@H](C(=O)OC)[C@@H]2C3=C(C(=O)[C@@]2(C)NC(=O)c2ccccc2)[C@H](c2ccccc2)n2c(=O)n(-c4ccccc4)c(=O)n2[C@@H]3C1
  -5%, -26%
CNC(=S)N/N=C(\C)c1ccc(C)c(C)c1
  -22%, -23%
O=C(Nc1nnc(S(=O)(=O)N2CCCC2)s1)c1ccc(F)cc1
  -14%, -14%
O=C(c1cnc(N2CCCCC2)c2ccccc12)N1CCN(c2ccccc2F)CC1
  -17%, -8%
CCC(Cc1ccccc1)OC(=O)c1ccccc1C(=O)O (stereo not given)
  -9%, i
NC(Cc1ccccc1)c1csc(Nc2ccc(C(F)(F)F)cn2)n1 (stereo not given)
  -24%, -23%
O=C(NC1CCS(=O)(=O)C1)C1CCCCN1S(=O)(=O)c1ccc(Cl)cc1 (stereo not given)
  -3%, ?
CCCCN(C(=O)C1CCN(C(=O)c2ccccc2C)CC1)c1c(N)n(CCCC)c(=O)[nH]c1=O
  -6%, i
CS(=O)(=O)N1CCc2ccc(NC(=O)C3CCCO3)cc2C1 (stereo not given)
  -4%, -2%

Every second line gives: Vaccinia Venus, Vaccinia mCherry
CCc1ccc(NC(=O)Cn2c(C(=O)OC)cc3oc(C)cc32)cc1
  -4%, -15%
COc1ccc(S(=O)(=O)N(C)C[C@@H]2Oc3c(NS(=O)(=O)c4cn(C)cn4)cccc3C(=O)N([C@@H](C)CO)C[C@@H]2C)cc1
  -22%, i
O=C(c1ccccc1Br)N1CCN(Cc2ccc3c(c2)OCO3)CC1
  -20%, -19%
CCOC(=O)C1=C(C)NC(C)=C(C(=O)OCC)C1/C=C/c1ccccc1OC
  -18%, ?
C[C@@H]1CCCCO[C@@H](CN(C)Cc2ccccc2)[C@@H](C)CN([C@H](C)CO)C(=O)c2cc(NC(=O)Nc3cccc4ccccc34)ccc2O1
  -28%, -6%
Cc1cc(Br)cn2c(Cc3cccc(F)c3)c(-c3ccc(Cl)cc3)nc12
  ?, -9%
COc1ccc(N2CCN(Cc3nc4c(c(=O)[nH]c(=O)n4C)n3Cc3ccc(C)cc3)CC2)cc1
  -6%, -13%
CN(CCOc1ccccc1)CC(=O)Nc1ccc(Cl)c(S(=O)(=O)N(C)C)c1
  -6%, -14%
C[C@]12CCC(=O)C=C1C=C[C@@H]1[C@@H]2CC[C@@]2(C)[C@H]1CC[C@@]2(O)CCC(=O)O
  -12%, i
CNc1ccc(/C=C2\C=Cc3ccccc32)cc1I
  -20%, -30%

Every second line gives: Vaccinia Venus, Vaccinia mCherry
CC(CN1CCN(CCOCCO)CC1)CN1c2ccccc2Sc2ccc(Cl)cc21 (stereo not given)
  ?, ?
COc1cccc(SCc2noc(C(=O)NCC3CCCO3)c2C(=O)O)c1 (stereo not given)
  -5%, -9%
Cc1cc(N2C(=O)CC(C(C)c3ccccc3)C2=O)no1 (stereo not given)
  -5%, .
Fc1ccc(C2c3[nH]c4ccccc4c3CCN2Cc2cccn2-c2ncccn2)cc1 (stereo not given)
  24%, 4.5µM*
CCOC(=O)c1cc(S(=O)(=O)N2CCN(c3ccccc3F)CC2)[nH]n1
  -13%, -4%
Cc1cc(Nc2ccccc2F)n2nc(C)nc2n1
  -1%, 2%
CC(=O)c1cc(NC(=O)c2ccc([N+](=O)[O-])cc2)c(=O)oc1C
  16%, 3%
CC(C)CC1C(=O)N(Cc2cn(CCC3OCCO3)nn2)CCS(=O)(=O)N1Cc1ccc(-c2ccc(F)cc2)cc1 (stereo not given)
  -25%, -29%
Cc1ccc(C(=O)C[n+]2cccc3ccccc32)cc1
  5%, -6%
COC(=O)c1ccccc1NC(=O)N1c2ccccc2Sc2ccccc21
  ?, -17%

Next part (2 carried over from the part before).
Every second line gives: Vaccinia Venus, Vaccinia mCherry
Cc1ccc(C(=O)C[n+]2cccc3ccccc32)cc1
  5%, -6%
COC(=O)c1ccccc1NC(=O)N1c2ccccc2Sc2ccccc21
  ?, -17%
COC(=O)NC1CCC(CC2CCC(NC(=O)OC)CC2)CC1 (stereo not given)
  -10%, -19%
CC1(C)CC(=O)C/C(=N\NC(=O)c2cccs2)C1
  -8%, i
O=C(COC(=O)CSc1ccc([N+](=O)[O-])cc1)NC1CCCCCCC1
  -7%, -14%
CNC(=O)CSc1nnnn1-c1ccc(C)cc1C
  -15%, .
O=c1c2ccccc2nc(SCc2nnc(-c3ccccc3)o2)n1-c1ccccc1
  -11%, -22%
COC(=O)C1=C(C)N(C)C(=O)NC1c1ccc(O)c(OC)c1 (stereo not given)
  -7%, -24%
CCn1c(COc2ccccc2)nnc1SCC(=O)Nc1ccc(N2CCOCC2)cc1
  -12%, -23%
Fc1ccccc1N1CCN(c2ncnc3onc(-c4ccc(Cl)cc4)c23)CC1
  -2%, 0%
O=C1CS/C(=N\NC(=O)c2ccccc2)N1
  -12%[7.34 µM], i[7.34 µM]
CC(OC(=O)c1ccc(Cl)nc1)C(=O)NCc1ccc2c(c1)OCO2 (stereo not given)
  -2%, -10%

Every second line gives: Vaccinia Venus, Vaccinia mCherry
COc1ccc(Cc2nnc(NC(=O)C3CC(=O)N(CCc4ccc(F)cc4)C3)s2)cc1OC (stereo not given)
  2%, -18%
C=CCN1C=C2C(=O)C(C)(OC(=O)CCC(=O)OC)C(=O)C(Br)=C2C=C1c1ccc(OC)cc1 (stereo not given)
  -2%, -7%
CC(C)(C)c1nc(SCC(=O)N2CC(=O)Nc3ccccc32)c2ccccc2n1
  11%, 0%
O=C(NCC(=O)N1CCN(c2ncc(C(F)(F)F)cc2Cl)CC1)c1ccc(Br)o1
  -15%, -12%
CCOC(=O)Nc1ccc2c(CNC(C)c3ccccc3OC)cc(=O)oc2c1 (stereo not given)
  -9%, 4%
C=CCNc1cc(F)ccc1S(=O)(=O)NCC=C
  -8%, i
c1ccc2c(Cn3ccnc3)cccc2c1
  -13%, -8%
CCOC(=O)c1cnc2sccn2c1=O
  7%, -16%
Cc1ccc2c(Cl)c(C(=O)N/N=C/c3cccn3C)sc2c1
  -16%, ?
Cc1ccc2oc(=O)c3cc(C(=O)Nc4ccc(F)cc4F)sc3c2c1
  -8%, 1%

Every second line gives: Vaccinia Venus, Vaccinia mCherry
Fc1ccccc1-c1nc(NCc2ccccc2)c2ccccc2n1
  -16%, -3%
Cc1cccc(OCC(=O)N/N=C\c2cccn2C)c1C
  -2%, -7%
COCc1cc(C(C)=O)ccc1OCC(=O)Nc1ccc(NC(C)=O)cc1
  2%, -3%
COc1cccc(C(=O)C(=O)N2CCN(C(=O)OCc3ccccc3)CC2)c1
  -18%, ?
Cc1ccc[n+](/C(=C\C(=C=[N-])C#N)C(=O)c2ccc(Cl)cc2)c1
  -6%, i
CCc1cc(=O)oc2c(CNCc3ccc(OC)cc3OC)c(O)c(Cl)cc12
  -4%, -12%
COc1cccc(NC(=S)N2CCC(N(C)CC3CCCO3)CC2)c1 (stereo not given)
  -13%, i
COc1c(C)cc(Br)cc1C(=O)Nc1ccc(S(N)(=O)=O)cc1
  0%, -8%
CCCN(CC1CC1)C(=O)COC(=O)c1ccc2c(c1)C(=O)N(c1ccc(OCC)cc1)C2=O
  -16%, i
COC(=O)C1=C(c2ccc(S(C)(=O)=O)cc2)C[C@@H]2CC[C@H]1N2C(=O)NCCNC(C)=O
  -8%, -20%
